CSC inhib: cancer stem cell viability inhibitors, primary screen, luminescence. inhibition, % at 7.5 µM. 1.1% of 300,000 active. cancer stem cell-like cells viability;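 active means mean at 75% or more and at least half the replicates too; inconclusive means mean and replicates disagree; tested in HMLE shEcad cells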;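 further: 0% = median of negative and 100% = median of positive control wells; the first replicate is given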
PABP FP inh: PABP poly(A) RNA binding inhibitors, primary screen, biochemical, fluorescence polarization, uHTS; Polyadenylate-binding protein 1 (Homo sapiens), P11940; 1% of 290,000 active; inhibition, % at 35 µM;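 active means 50% or more with normal probe brightness, or confirmed in later tests; inconclusive means above 50% with abnormal brightness, or retests that disagree; inactive means below 50% or failed in later tests; about a fifth of its hits are not listed in these tables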;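 further: calls also rest on retests at 20 µM and on dose response follow-up; controls were probe without protein and protein plus probe with vehicle; some compounds called inactive have numbers as strong as hits; many hits fall short of the cut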
Target sequence (P11940 whole entry, looked up): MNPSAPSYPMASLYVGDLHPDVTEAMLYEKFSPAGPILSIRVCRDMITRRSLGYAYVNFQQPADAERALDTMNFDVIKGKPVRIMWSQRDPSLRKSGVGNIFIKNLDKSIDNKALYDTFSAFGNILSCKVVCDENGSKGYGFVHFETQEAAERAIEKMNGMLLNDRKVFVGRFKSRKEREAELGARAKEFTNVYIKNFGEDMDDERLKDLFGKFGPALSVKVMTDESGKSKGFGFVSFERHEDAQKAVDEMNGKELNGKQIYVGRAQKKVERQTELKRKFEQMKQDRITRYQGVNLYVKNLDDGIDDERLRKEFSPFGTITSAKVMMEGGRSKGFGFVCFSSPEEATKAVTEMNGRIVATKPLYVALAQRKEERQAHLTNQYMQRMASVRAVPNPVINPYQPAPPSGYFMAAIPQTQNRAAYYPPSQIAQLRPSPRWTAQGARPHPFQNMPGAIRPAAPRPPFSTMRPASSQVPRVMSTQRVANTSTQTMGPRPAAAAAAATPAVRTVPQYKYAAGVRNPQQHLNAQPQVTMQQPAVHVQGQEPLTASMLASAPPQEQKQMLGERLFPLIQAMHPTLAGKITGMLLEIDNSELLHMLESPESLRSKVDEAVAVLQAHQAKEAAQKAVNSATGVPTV
Rce1 inh: yeast Rce1p protease inhibitors, primary screen, biochemical, fluorescence, cell-free homogeneous | CAAX prenyl protease 2 (Saccharomyces cerevisiae (strain ATCC 204508 / S288c)), Q03530 | yeast membranes, quenched prenylated peptide cleavage fluorescence | calls only | 0.27% of 290,000 active;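 active means fall in fluorescence gain of 50% or more versus controls, with final raw signal at or below 3038400; inconclusive means same 50% fall but final raw signal above 3038400; inactive means fall in fluorescence gain under 50%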;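 further: plate controls were neutral control wells for no effect and wells lacking membranes for full effect; tested at 10 µM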
Target sequence (Q03530 whole entry, looked up): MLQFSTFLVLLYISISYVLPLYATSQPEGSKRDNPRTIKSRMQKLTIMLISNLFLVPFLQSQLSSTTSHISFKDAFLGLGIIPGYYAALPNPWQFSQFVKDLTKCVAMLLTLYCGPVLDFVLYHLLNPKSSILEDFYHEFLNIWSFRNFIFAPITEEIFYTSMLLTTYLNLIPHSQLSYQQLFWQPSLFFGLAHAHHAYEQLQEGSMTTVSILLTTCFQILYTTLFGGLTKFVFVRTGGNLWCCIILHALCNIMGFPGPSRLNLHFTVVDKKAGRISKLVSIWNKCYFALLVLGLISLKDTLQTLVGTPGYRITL
MT1-MMP act inh: blockers of MT1-MMP proenzyme processing, primary screen, HT1080 RFP-PRO-GFP cells, GFP/RFP fluorescence | GFP/RFP ratio fluorescence, overnight; percent of plate control window, DMSO zero | GFP/RFP ratio change, % at 20 µM | 0.061% of 360,000 active;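 active means GFP/RFP ratio change of at least 30% with cell ATP level not reduced by more than half and red fluorescence within 50% of control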; further: strong numbers were not always called active
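Read-out: GFP/RFP fluorescence ratio; Test system: RFP-PRO-GFP reporter HT1080 cells; Compound dosing: single-point 20 µM compound, 1% DMSO; Times: overnight compound exposure at 37 °C.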
UUG fidelity: modulators of yeast start codon fidelity, primary screen, whole organism, S. cerevisiae, single point, plate reader; S. cerevisiae UUG-firefly luciferase reporter, luminescence/redox ratio; activity score, % at 18.7 µM; 0.13% of 350,000 active;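 active means replicate mean at a twofold rise or more, about +100% in these data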;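 further: firefly luciferase made from a UUG start codon reports start codon fidelity; reporter light over untreated wells divided by growth signal over untreated wells; some hits fall short of that in this replicate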
HIV Env fusion: inhibitors of HIV-1 Env-driven cell-cell fusion, primary screen, HeLa-JRFL effector, CEM21 target cells, luciferase | inhibition, % at 12.3 µM | 1.1% of 360,000 active;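 active means mean replicate inhibition score of at least 50 and every replicate individually at or above 50; inconclusive means only one of the two criteria met; inactive means mean below 50 and not all replicates reaching 50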;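 further: 0% = plate neutral controls and 100% = maraviroc near 300 nM; one replicate is shown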
eIF4H inh: human eIF4H binding inhibitors, primary screen, translation initiation inhibitor project, biochemical, uHTS, fluorescence polarization; Eukaryotic translation initiation factor 4H (Homo sapiens), Q15056; eIF4H fluorescence polarization binding assay; inhibition, % at 35 µM; 0.94% of 290,000 active;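 active means 50% or more with normal probe brightness, or confirmed in later tests; inconclusive means above 50% with abnormal brightness, or retests that disagree; inactive means below 50% or failed in later tests; about a fifth of its hits are not listed in these tables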;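 further: calls also rest on retests at 20 µM and on dose response follow-up; 0% = protein and probe with vehicle and 100% = probe without protein; strong numbers were not always called active; many hits fall short of the cut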
MT1-MMP act inh RFP: recorded beside MT1-MMP act inh, whose call it bears; RFP signal change, %; measured here: RFP expression control read;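 0 = vehicle wells; hits needed this value within 50% of zero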
Numbers without * were called inactive; i = inactive; u = inconclusive; x = not tested or not shown; + = active, no number; [ ] = another dose, or the depositor's remark. The list is partial; count on the stated rates, not on these rows.

SMILES	CSC inhib	PABP FP inh	Rce1 inh	MT1-MMP act inh	MT1-MMP act inh RFP	UUG fidelity	HIV Env fusion	eIF4H inh
COc1ccc(Cl)cc1NC(=O)N1CCN(S(C)(=O)=O)CC1	-4	-2	i	-10	-11	-10	13	-2
CN(C)CC(=O)N[C@@H]1C=C[C@@H](CC(=O)NCCN2CCCCC2)O[C@@H]1CO	x	x	x	-4	5	-4	-2[16.7 µM]	x
COC(=O)C(CC(=O)CNC(=O)c1ccccc1)NC(=O)c1ccccc1 (centres undefined)	x	x	x	-8	-2	-15	-9	x
CC1(O)CC(c2ccc(Cl)cc2)=NN1C(=O)c1ccc(Cl)cc1 (centres undefined)	66	3	i	0	-8	6	13	-1
CCN(CC(=O)NCc1cccs1)C(=O)c1cccc(S(=O)(=O)Nc2ccc(C)cc2)c1	-2	x	i	1	-6	-12	x	x
COc1cccc(NC(=O)C(Cc2ccccc2)n2cccc2)c1 (centres undefined)	-12	-2	i	-3	0	x	-5	1
CCOc1ccc(OCCOCCn2ccnc2)cc1	6	23	i	-6	-1	-29	-118	18
O=C(/C=C/c1cn(-c2ccccc2)nc1-c1cccs1)NCCN1CCOCC1	-10	1	+	0	-3	-1	-6	-11
O=C(NCCc1c[nH]c2ccccc12)C1CCC(=O)N(CCc2cccc(F)c2)C1 (centres undefined)	-2	-6	i	0	2	6	2	-3
O=C(Nc1ccc2c(c1)OCCO2)C(C1CC1)N1CCN(C/C=C/c2ccccc2)CC1 (centres undefined)	x	x	x	0	3	-4	5	x
CC(N)c1csc(Nc2nccc(C(F)(F)F)n2)n1 (centres undefined)	x	x	x	0	6	2	-8	x
CC1(C)C2CCC1(C)C(NC(=O)CCN1CCCCC1)C2 (centres undefined)	-6	-4	i	2	6	-14	x	-6
Cc1ccc(NC(=O)c2ncn(CC(=O)N[C@H](CO)Cc3c[nH]c4ccccc34)n2)cc1C	x	x	x	4	2	-16	-25	x
CCO[C@@H]1c2c(ccc3ccc(=O)oc23)OC(C)(C)[C@H]1O	-10	x	x	8	6	-15	15	x
c1ccc2c(c1)nc1n2CC2CON(C3CCCCC3)C12 (centres undefined)	-4	-1	i	1	1	-15	23	0
N=C1SC(c2ccccc2)C(=O)N1c1ncc(Cc2ccccc2Cl)s1 (centres undefined)	-8	-10	i	19	2	-2	17	21
O=C(CN1CCCC1)Nc1ccccc1Sc1ccc(Cl)cc1	-7	39	i	9	1	x	7	3
COc1ccc(/C=N/N=C2/C(=O)Nc3ccccc32)cc1O	0	-7	x	2	1	x	0	-4
CCOC(=O)c1cnc2ccc(OCC)cc2c1N1CCN(c2ccccc2)CC1	52	-6	i	-12	-14	-1	12	18
Cc1cc(Br)cc(Cl)c1OC(=O)c1cnccn1	-4	18	i	1	0	-15	-11	36
CCN(CC)C(=O)c1ccccc1NS(C)(=O)=O	-5	-6	i	1	2	5	1	2
COc1ccc(C2CC(=O)C(C=NCCN3CCOCC3)=C(O)C2)cc1 (centres undefined)	1	1	i	7	7	7	x	3
Cc1ccc(C(=O)N2CCN(C(=O)C3CCCO3)CC2)cc1 (centres undefined)	-14	x	x	-2	-2	-11	x	x
O=C(N[C@@H](Cc1ccccc1)C(=O)N1CCN(S(=O)(=O)c2cccc(F)c2)CC1)c1ccco1	-6	x	x	-2	3	4	x	x
O=C1CCc2cc(S(=O)(=O)N3CCN(c4ccccc4F)CC3)ccc2N1	-2	-2	i	-1	-11	x	17	-4

Molecules shown so far with a Cl atom, in the order listed:
SMILES	CSC inhib	PABP FP inh	Rce1 inh	MT1-MMP act inh	MT1-MMP act inh RFP	UUG fidelity	HIV Env fusion	eIF4H inh
COc1ccc(Cl)cc1NC(=O)N1CCN(S(C)(=O)=O)CC1	-4	-2	i	-10	-11	-10	13	-2
CC1(O)CC(c2ccc(Cl)cc2)=NN1C(=O)c1ccc(Cl)cc1 (centres undefined)	66	3	i	0	-8	6	13	-1
N=C1SC(c2ccccc2)C(=O)N1c1ncc(Cc2ccccc2Cl)s1 (centres undefined)	-8	-10	i	19	2	-2	17	21
O=C(CN1CCCC1)Nc1ccccc1Sc1ccc(Cl)cc1	-7	39	i	9	1	x	7	3
Cc1cc(Br)cc(Cl)c1OC(=O)c1cnccn1	-4	18	i	1	0	-15	-11	36

(more compounds)
SMILES	CSC inhib	PABP FP inh	Rce1 inh	MT1-MMP act inh	MT1-MMP act inh RFP	UUG fidelity	HIV Env fusion	eIF4H inh
CCC(CC)C(=O)c1c[nH]c(C(=O)NCc2cccs2)c1	-20	4	i	2	1	-10	2	-1
C=CCn1c(CCCNC(=O)CCC)nc2ccccc21	x	-2	i	2	5	-6	x	5
O=C1c2oc3ccc(Cl)cc3c(=O)c2C(c2ccco2)N1CCN1CCOCC1 (centres undefined)	-6	-8	i	-3	3	-4	x	10
O=C(CCN1CCCCC1)Nc1ccc(F)c(F)c1	x	x	x	4	7	-3	-10	x
Cc1nc(SC(C(N)=O)c2ccccc2)c(C#N)c(C)c1C (centres undefined)	-18	11	i	3	-1	9	-2	13
CCOC(=O)N/N=C1\CCc2ccccc21	-4	2	i	0	5	x	x	5
N#CCC(=O)N/N=C/c1c(-c2ccccc2)n(-c2ccccc2)c2ccccc12	x	-10	i	-19	-16	0	2	-4
CCOC(=O)CCc1c(C)nc(SCCN2CCCC2)c(C#N)c1C	49	-5	i	7	-1	-6	-7	-5
CC(=O)Sc1nc(-c2ccccc2)[nH]c1S(=O)(=O)c1ccc(C)cc1	13	3	i	x	x	x	x	8
CCOc1ccc(N2C(=O)CC(SCC(=O)O)C2=O)cc1 (centres undefined)	x	8	i	1	4	x	-6	0
COc1ccc2cc(-c3ccsc3)ncc2c1	-8	x	x	1	0	-19	-167	x
CSCCC(NC(N)=O)C(=O)N(C)CC(=O)Nc1ccc(C)cc1 (centres undefined)	-2	1	i	2	1	0	x	-3
Cc1ccccc1OCCn1cnc2cc([N+](=O)[O-])ccc2c1=O	10	14	i	-2	-3	x	-4	-1
Cc1ccc(S(=O)(=O)N2[C@@H](c3ccc(Br)cc3)C(C(=O)O)=CC[C@H]2c2cccc(C)c2)cc1	x	x	x	0	2	-25	-6	x
NC(=O)c1ccc(N=Cc2ccc([N+](=O)[O-])s2)cc1	25	5	x	5	6	x	-18	-4
Cc1ccc(-c2nn(C(C)(C)C)c3ncnc(NS(=O)(=O)c4ccc([N+](=O)[O-])cc4)c23)cc1	-4	-4	x	-1	-7	x	5	-1
CCN(CC(=O)Nc1ccc(N2CCOCC2)cc1)Cc1nc2ccccc2c(=O)[nH]1	-1	2	i	-3	1	6	x	4
COc1cccc(OCC(=O)Nc2c3c(nn2-c2ccccc2)CS(=O)(=O)C3)c1	7	8	i	-2	2	23	-17	19
O=C(c1ccc(NC(=O)C2(c3ccccc3)CCOCC2)cc1)N1CCOCC1	0	-8	x	-21	-20	-8	x	0
COc1ccc(C)cc1-n1c(SCC(=O)NCC2CCCO2)nc2c([nH]c3ccccc32)c1=O (centres undefined)	-9	3	i	-5	-4	-6	-21	-9
Cc1sc(NC(=O)C2C3CCC(O3)C2C(=O)O)c(C(=O)OC(C)C)c1-c1ccc(Cl)cc1 (centres undefined)	1	4	i	-1	-1	-7	x	-4
Cc1ccccc1NC(=S)NNC(=O)c1ccco1	x	1	i	-1	2	-28	-13	-8
O=C(CC1SC(=Nc2ccc(OC(F)F)cc2)N(CCC2=CCCCC2)C1=O)Nc1ccccc1F (centres undefined)	x	0	i	-8	0	x	30	-12
CCOC(=O)N1CCN(C(=O)Cn2nc(C)n3nc(-c4ccc(CC)cc4)cc3c2=O)CC1	-14	-1	i	2	-3	-5	-64	-9
N#CC1=C(N)Oc2cc(O)c(Cl)cc2C1c1ccccc1F (centres undefined)	1	u	i	-136	4	-21	17	u

An excerpt from above in order of molecular weight, ascending:
SMILES	CSC inhib	PABP FP inh	Rce1 inh	MT1-MMP act inh	MT1-MMP act inh RFP	UUG fidelity	HIV Env fusion	eIF4H inh
COc1ccc2cc(-c3ccsc3)ncc2c1	-8	x	x	1	0	-19	-167	x
C=CCn1c(CCCNC(=O)CCC)nc2ccccc21	x	-2	i	2	5	-6	x	5
Cc1ccc(S(=O)(=O)N2[C@@H](c3ccc(Br)cc3)C(C(=O)O)=CC[C@H]2c2cccc(C)c2)cc1	x	x	x	0	2	-25	-6	x

Back to the main list, repeating the 4 entries before the break.
SMILES	CSC inhib	PABP FP inh	Rce1 inh	MT1-MMP act inh	MT1-MMP act inh RFP	UUG fidelity	HIV Env fusion	eIF4H inh
Cc1ccccc1NC(=S)NNC(=O)c1ccco1	x	1	i	-1	2	-28	-13	-8
O=C(CC1SC(=Nc2ccc(OC(F)F)cc2)N(CCC2=CCCCC2)C1=O)Nc1ccccc1F (centres undefined)	x	0	i	-8	0	x	30	-12
CCOC(=O)N1CCN(C(=O)Cn2nc(C)n3nc(-c4ccc(CC)cc4)cc3c2=O)CC1	-14	-1	i	2	-3	-5	-64	-9
N#CC1=C(N)Oc2cc(O)c(Cl)cc2C1c1ccccc1F (centres undefined)	1	u	i	-136	4	-21	17	u
CC(/C=C1\SC(=S)N(NC(=O)c2ccncc2)C1=O)=C\c1ccccc1	17	18	i	0	5	-10	-2	-6
COc1cc(CNCCc2ccccc2)cc(Br)c1OCC(=O)Nc1ccccc1C	x	-6	i	3	-11	x	33	-3
COc1ccccc1CNC(=O)CCc1nnc2ccc(NCCCN3CCCC3=O)nn12	-19	15	i	2	0	-11	-5	4
Cn1c(=NC(=O)CCl)sc2ccccc21	10	-2	i	1	-13	-28	x	-3
CCOC(=O)C1(CCCc2ccccc2)CCN(C(=O)c2n[nH]c(CC)c2C)CC1	x	x	x	8	-17	5	20	x
c1ccc2c(c1)nc(-c1ccncc1)n2CCNc1nc(CN2CCCCC2)cs1	0	2	i	-2	5	-9	-4	2
O=C1CC(C(=O)Nc2ccccc2C(=O)O)C(c2ccccc2)O1 (centres undefined)	0	-1	i	-2	0	-10	x	0
Cc1ccc(NC(=O)Cc2ccccc2)cc1S(=O)(=O)N1CCOCC1	-15	x	x	3	6	-9	x	x
Cc1ccc2oc(=O)n(Cc3ccccc3)c2c1	-3	7	i	-6	3	-2	16	-6
O=C(NN=C1CCCCCC1)c1ccc2c(c1)OCO2	19	15	i	1	5	-7	-9	-17
CCOC(=O)Cc1nnc(NC(=O)CSc2nnc3c(n2)[nH]c2ccccc23)s1	-1	0	i	1	2	x	10	17
COCOc1ccc(/C=C/C(=O)c2c(O)cc(OCOC)cc2OCOC)cc1	12	x	i	1	-4	-5	x	x
C/C(=N/NC(=O)c1ccc(C)s1)c1cccc(NC(=O)COc2ccc(Cl)cc2Cl)c1	9	6	i	x	x	x	x	-11
CC(=O)Nc1cccc(C(=O)N/N=C/c2ccc(C)o2)c1	-3	-3	i	4	1	x	5	-2
CCc1nnc(SCC(=O)Nc2ccc(N3CCOCC3)cc2)o1	-4	-16	i	-1	-1	0	x	-6
Cc1cccc(N(CC(=O)NCC2CCCO2)C(=O)CCC(=O)Nc2cc(C)on2)c1 (centres undefined)	-9	-4	i	-15	0	2	-13	3
Cc1occc1C(=O)N1CCN(c2ncccn2)CC1	-3	3	i	6	3	8	x	-2
Cc1ccc(OCC(=O)NCC(=O)n2nc(C)cc2C)cc1	-9	4	i	-1	0	-3	15	-12
CCOc1ccc(NC(=S)NC(=O)c2c(Cl)c(C)nn2C)c([N+](=O)[O-])c1	0	11	i	0	0	-20	x	2
